Screens: PubChem, several laboratories
PrP 5UTR inh = inhibition of PrP 5' UTR reporter expression; inhibition, % (test concentration not listed); cell-based PrP 5' UTR mRNA reporter, plate reader; actives 0.35% (n = 340,000);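 active means every replicate at 50% or more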;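 further: 0 = median of the neutral control wells; tested in H4 reporter cells; numbers are from one replicate; inactives centre near -14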
BJeLR viability = BJeLR cell viability loss. BJeLR (HRASV12) viability, CellTiter-Glo ATP luminescence, 48 h; reference of the scale not given here. inhibition, % (concentration not given with the values). actives 0.17% (n = 300,000). AID 1554;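 active means replicate mean above 50%; inconclusive means above 50% but judged a plate artefact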;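 further: 50 nL library stock added to about 25 µL; numbers are from one replicate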
RN4220 kill = kills Staphylococcus aureus RN4220 | actives 0.33% (n = 330,000) | AID 1259311 | inhibition, % (test concentration not listed) | S. aureus RN4220 growth, OD600, 16 h;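 active means z-score of -3 or lower and OD600 up to 0.18 on both plates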;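 further: plate controls were untreated cells for no effect and reference antibiotic for full effect; stock transfer was 100 nL into about 80 µL; one replicate is shown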
Mtb hypoxia inh = reduces hypoxia-regulated biosensor signal in M. tuberculosis | AID 1159583 | actives 0.1% (n = 300,000) | M. tuberculosis hypoxia-regulated fluorescent reporter, fluorescence | fluorescence inhibition, % (test concentration not listed);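 active means 35 to 45% if threefold the growth effect, above 45% if 1.5-fold the growth effect; inactive means the rest, general growth blockers included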;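 further: wells of about 50 µL received 100 nL stock; 0% = vehicle wells and 100% = reference inhibitor wells; whole bacteria with a GFP reporter of the hypoxia response; strong numbers were not always called active; many hits fall short of the cut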
Autofluor counter = flagged as autofluorescent in microsphere protease counterscreen; actives 3.1% (n = 360,000); fluorescence intensity (no concentration beside the values); compound autofluorescence counterscreen, microsphere flow cytometry; hits give high values;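 active means at least 3 SD above the mean of all compounds, about 16000 in these data; inconclusive means too few beads counted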;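 further: 100 nL of 1 mM stock went into each well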
ugtP null kill = compounds lethal to S. aureus RN4220 ugtP deletion mutant; OD600 growth, 16 h; some inactives read as strong as hits; growth inhibition, % (test concentration not listed); actives 0.54% (n = 330,000);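 active means z-score under -3 and OD600 up to 0.15 on both plates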;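 further: plate controls were untreated wells for no effect and antibiotic for full effect; wells of about 80 µL received 100 nL stock; the first replicate is given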
Mtb hypoxia inh growth = second read-out of Mtb hypoxia inh, no call of its own (marks repeat the call); growth inhibition, %; measured here: M. tuberculosis growth (absorbance);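 0% = vehicle and 100% = reference antibiotic; read after six days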
Active calls of the source: *; ? = inconclusive; . = not tested or not shown. The order is random, and some 4% of all compounds hit somewhere here.

SMILES	PrP 5UTR inh	BJeLR viability	RN4220 kill	Mtb hypoxia inh	Mtb hypoxia inh growth	Autofluor counter	ugtP null kill
CCC1(C)Cc2c(sc(NC(=O)CCC(=O)O)c2C#N)CO1 (configuration not stated)	-28	-12	-11	21	10	3942	-1
COc1cc(C(=O)NCC(=O)N2CCN(S(=O)(=O)c3ccccc3)CC2)cc(OC)c1OC	7	-4	3.2	3	-5	?	9
Cc1ccc(N(CC(=O)NCc2ccccc2)C(=O)c2csnn2)cc1	-15	14	2.4	0	-8	4383	7
O=C1/C(=C\Nc2ccc(OC(F)(F)F)cc2)CCN1c1ncccn1	-16	-8	-1.6	.	.	2709	-9
Cc1ccc2c(c1)COc1c3ccc(C(=O)NC(CO)C(C)C)cc3nn1-2 (configuration not stated)	.	.	9.5	10	5	.	16
Cc1ccc(NC(=O)CCC(=O)c2cccs2)nc1	-28	-5	1.8	-3	-5	?	0
Cc1cc(/C=N/n2cnnc2)c(C)n1-c1ccc2ncccc2c1	6	0	.	.	.	5244	.
CCSc1nnc2n(-c3ccc(OC)cc3)c(=O)c3c4c(sc3n12)CCCC4	9	0	5.3	5	0	?	9
O=C(/C=C/c1ccc(O)cc1)c1ccc(O)cc1O	-46	10	.	.	.	6265	.
O=C(Nc1scc(-c2ccccc2)c1C(=O)O)c1ccccc1F	-28	-3	8.2	-10	-4	4068	-26
O=C(CNC(=O)c1ccco1)N=Nc1c(O)[nH]c2ccc(Br)cc12	-8	-3	5.6	-6	-9	4128	11
O=C(O)c1cccc(CN2C(=O)CSC2=O)c1	-5	-9	-14	14	0	2590	-6
CCOC(=O)C1=NN(C(=O)Nc2cccc(C(F)(F)F)c2)C2C(=O)N(c3cccc(C(F)(F)F)c3)C(=O)C12 (configuration not stated)	-1	10	.	.	.	3268	.
CC(C)CN(C(=O)c1ccc(=O)n(C)n1)c1nc2ccccc2s1	-14	4	7.2	10	12	7200	11
COc1ccc(-c2cn(-c3ccc(C)cc3)c(=O)n2CC(=O)Nc2ccc(OC)c(OC)c2)cc1	-10	-5	6.0	2	2	3846	3
CSCCC(NC(=O)c1ccco1)C(=O)Nc1ccc(C)c(S(=O)(=O)N2CCOCC2)c1 (configuration not stated)	-28	7	1.2	-2	0	8196	1
COc1ccccc1CC(=O)Nc1ccon1	-18	5	1.2	8	3	3239	3
COc1cccc(C2/C(=C(/O)c3ccc4c(c3)CC(C)O4)C(=O)C(=O)N2CCCn2ccnc2)c1 (configuration not stated)	-9	7	3.9	-8	-4	4227	3
Cc1cccc(OCCN2C(=O)C(=O)c3cc(C)ccc32)c1	-22	29	18	7	12	4538	7
COc1ccc(CN(CC2CCCO2)C(=O)c2cc3sccc3n2C)c(OC)c1 (configuration not stated)	-3	20	0.9	-1	0	2075	0
O=C(OCC(=O)N1CCCc2ccccc21)c1cccc(S(=O)(=O)N2CCc3ccccc32)c1	-11	-20	1.5	7	0	2533	0
Clc1ccc(C2=Nn3c(nnc3-c3cccs3)SC2)cc1	1	4	-0.4	-13	-9	4223	-9
Cc1cc(C)nc(Nc2ccc(N3CCCC3)cc2)n1	-32	-6	0.0	22	30	4107	4
Cc1ccc(S(=O)(=O)NCC(=O)N(CC(=O)NCc2ccc(F)cc2)CC2CCCO2)cc1 (configuration not stated)	-7	-2	3.6	9	8	5497	10
CN(C)C=NC(=O)c1[nH]c2ccc(Cl)cc2c1-c1ccccc1	-33	-1	-5.1	1	-2	4192	-17

A second format for 4 compounds above.
CCSc1nnc2n(-c3ccc(OC)cc3)c(=O)c3c4c(sc3n12)CCCC4
  PrP 5UTR inh: 9
  BJeLR viability: 0
  RN4220 kill: 5.3
  Mtb hypoxia inh: 5
  Mtb hypoxia inh growth: 0
  Autofluor counter: ?
  ugtP null kill: 9

O=C(/C=C/c1ccc(O)cc1)c1ccc(O)cc1O
  PrP 5UTR inh: -46
  BJeLR viability: 10
  RN4220 kill: .
  Mtb hypoxia inh: .
  Mtb hypoxia inh growth: .
  Autofluor counter: 6265
  ugtP null kill: .

O=C(Nc1scc(-c2ccccc2)c1C(=O)O)c1ccccc1F
  PrP 5UTR inh: -28
  BJeLR viability: -3
  RN4220 kill: 8.2
  Mtb hypoxia inh: -10
  Mtb hypoxia inh growth: -4
  Autofluor counter: 4068
  ugtP null kill: -26

O=C(CNC(=O)c1ccco1)N=Nc1c(O)[nH]c2ccc(Br)cc12
  PrP 5UTR inh: -8
  BJeLR viability: -3
  RN4220 kill: 5.6
  Mtb hypoxia inh: -6
  Mtb hypoxia inh growth: -9
  Autofluor counter: 4128
  ugtP null kill: 11

(listing goes on)
SMILES	PrP 5UTR inh	BJeLR viability	RN4220 kill	Mtb hypoxia inh	Mtb hypoxia inh growth	Autofluor counter	ugtP null kill
Cc1ccccc1NS(=O)(=O)c1cc(C(=O)N2CCc3ccccc3C2)ccc1C	-23	6	20	6	7	25113*	-7
COc1ccccc1C1OC2=C(Nc3ccc([N+](=O)[O-])cc3N2)C1=O (configuration not stated)	-4	-6	4.9	0	3	3191	12
CCN(CC)S(=O)(=O)c1cccc(C(=O)N/N=C/c2c(C)nn(-c3ccccc3)c2Cl)c1	-24	-16	.	.	.	2373	.
COc1cccc(C=NNC(=O)CN(C)S(=O)(=O)c2ccccc2)c1OC	.	.	3.9	13	-2	.	3
CC(Sc1cccc[n+]1[O-])C(=O)Nc1cccc([N+](=O)[O-])c1 (configuration not stated)	-5	-2	3.5	2	8	3270	2
COc1cc(CCN2C(=O)c3cccc4cccc(c34)C2=O)c(S(=O)(=O)N2CCCCCC2)cc1OC	5	-9	17	-1	-2	2067	8
CC(C)(C)n1nc2c(c1NC(=O)c1cccc(Cl)c1)CS(=O)(=O)C2	-14	-5	-2.4	-3	-2	4191	-3
N#Cc1cccc(NC(=O)CSc2n[nH]c(=O)[nH]c2=O)c1	-22	-8	.	.	.	4717	.
CCCc1cc(=O)[nH]c(-n2[nH]c3c(c2=O)CCCC3)n1	-2	6	.	.	.	3215	.
CCN(C(=O)CSc1nnc(NCc2ccccc2)s1)C1CCS(=O)(=O)C1 (configuration not stated)	-14	-1	2.5	1	7	4628	6
O=C(Cn1cnc2c(NCc3ccccc3)ncnc21)NCc1ccccc1	-26	.	0.5	-2	7	3902	-4
CC1S/C(=N/N=C/c2cccs2)NC1=O (configuration not stated)	-9	7	.	.	.	2706	.
COc1cccc(C(=O)COc2cccc(NC(=O)c3cccc([N+](=O)[O-])c3)c2)c1	-9	.	-0.6	4	9	2918	-16
Cc1nn(C(C)(C)C)c(OC(=O)c2ccc(Br)o2)c1Sc1ccccc1	-18	4	0.8	-1	-4	14108	7
CCOc1ncccc1C(=O)OCC(=O)Nc1cc(S(=O)(=O)N2CCOCC2)ccc1Cl	0	14	3.1	4	-7	2503	17
CCCC(=O)Nc1sc2c(c1C#N)CC(C)(C)NC2(C)C	-7	-7	-10	6	6	2365	-5
O=C(NCCn1c(C(F)(F)F)nc2ccccc21)[C@H]1CCCN1c1nc(CN2CCCCC2)cs1	-17	1	.	.	.	4057	.
NC(=O)c1ccc(NC(=O)COC(=O)c2cc([N+](=O)[O-])ccc2N2CCOCC2)cc1	-23	11	2.9	-4	-3	.	-2
Cc1ccc(NC(=O)CN(C)CC(=O)Nc2cccc(F)c2)cc1S(=O)(=O)N1CCCCCC1	-25	-28	4.8	5	8	4610	-3
O=C(c1ccc(F)cc1)N1CCC(C(=O)N2CCN(S(=O)(=O)c3ccccc3Br)CC2)CC1	-20	3	4.1	7	0	6496	0
Cc1nc(C)n(C(C)CNC(=O)c2ccco2)n1 (configuration not stated)	61*	3	3.4	3	-3	3328	3
C=CCn1c(SCC(=O)NC2CCCCC2)nnc1C(C)NC(=O)c1cccs1 (configuration not stated)	-18	-3	2.8	8	6	9430	-4
COc1ccc(CCNC(=S)Nc2cc(C)ccc2C)cc1	-5	-9	-3.0	.	.	6024	-3
Oc1ccc(N2CCN(C(c3cccs3)c3nnnn3CCc3ccccc3)CC2)cc1 (configuration not stated)	2	-7	13	.	.	3484	12
Cc1ccc(O)c(N)c1	-28	.	1.7	11	13	5480	0

Other structures
SMILES	PrP 5UTR inh	BJeLR viability	RN4220 kill	Mtb hypoxia inh	Mtb hypoxia inh growth	Autofluor counter	ugtP null kill
CCC(C(=O)OCC(=O)c1ccc2c(c1)NC(=O)CO2)c1ccccc1 (configuration not stated)	-14	-3	2.2	9	7	4717	-65
Cc1cc(C)nc(N2CCCC(C(=O)Nc3ccc(F)cc3)C2)n1 (configuration not stated)	-58	3	2.2	-3	0	3739	-1
O=C(c1cccnc1)N1CCc2ccccc21	-16	-2	1.6	0	5	20167*	-2
COc1cc(C(=O)NCC(=O)OCc2ccc(F)cc2)cc(OC)c1OC	5	.	2.1	-1	1	2915	4
CN(CC(=O)Nc1cccc(F)c1)C(=O)c1cccc(S(=O)(=O)N2CC3(C)CC2CC(C)(C)C3)c1 (configuration not stated)	-24	-10	4.3	6	3	6104	5
COC(=O)c1sc(N2C(=O)C(=O)/C(=C(/O)c3ccccc3)C2c2ccco2)nc1C (configuration not stated)	-20	-3	2.5	5	6	2302	9
O=C(NCCC1CCCCN1S(=O)(=O)c1ccccc1)C(=O)NCc1ccco1 (configuration not stated)	-24	-7	1.3	8	5	?	7
Cc1ccc(CCNC(=O)CNC(=O)c2cccs2)cc1	-22	-7	11	7	9	4386	3
C#CCOCCOCCOCCNc1nc(N2CCOCC2)nc(N2CCN(C(=O)Cn3cc(CC(C)O)nn3)CC2)n1 (configuration not stated)	-17	2	.	.	.	3969	.
Cc1c(C(=O)N2CCCCCC2)c(S(=O)(=O)NCc2ccccc2Cl)c(C)n1C	-8	-1	4.9	13	0	4531	9
COc1ccc(NC(=O)c2cc3ccccc3o/c2=N\NS(=O)(=O)c2ccc(C)cc2)cc1	-46	1	.	.	.	5589	.
COc1cccc(OC)c1C(=O)NC(=O)Oc1c(F)cccc1F	-21	7	3.0	-5	2	5546	5
O=C1C=C(c2ccccc2)CC(c2cccs2)C1n1cnc([N+](=O)[O-])c1 (configuration not stated)	-5	2	-0.4	.	.	2405	-4
OCCC1CN(Cc2nc(-c3ccccc3)cs2)CCN1CCc1ccccc1 (configuration not stated)	-15	1	1.3	0	1	2742	2
Cn1nnnc1SCC(=O)Nc1nc2ccccc2s1	-43	2	6.7	0	5	4698	5
Cc1ccc(C23CC4CC(CC(C(=O)NN)(C4)C2)C3)cc1	5	-2	1.7	-1	-3	3145	-6
O=C(C1=CC(c2ccccc2)CC(OCCCCO)O1)N1CCN(Cc2ccccc2)CC1 (configuration not stated)	.	.	3.9	16	8	.	7
COc1ncccc1C(=O)N1CCCC(N2CCN(c3ccc(F)cc3)CC2)C1 (configuration not stated)	-13	14	5.9	7	2	4675	14
CCOc1ccc(N2C(=O)CC(NC3CCCCNC3=O)C2=O)cc1 (configuration not stated)	-16	-8	-9.4	.	.	2839	8
COc1ccccc1C(=O)COC(=O)c1cccs1	-59	.	5.1	18	11	3372	0
COc1cc(OC)cc(C(=O)NNS(=O)(=O)c2ccc(F)cc2)c1	-8	-7	-1.0	-7	-4	.	-1
COc1cc(OC)cc(C(=O)OCC(=O)NC2CCCCCC2)c1	-23	.	3.5	5	5	8312	3
Cc1ccc(S(=O)(=O)c2nc(S(C)(=O)=O)sc2N2CCC(C(N)=O)CC2)cc1	-16	8	2.6	9	16	5066	7
O=C(NN=C1CC2CCC1C2)c1cc2ccccc2cc1O (configuration not stated)	.	.	11	5	2	.	-15
CC(C)Oc1ccc(C2CC(=O)N(C)C2=O)cc1 (configuration not stated)	8	0	2.2	6	5	3639	5

Going on with the list:
SMILES	PrP 5UTR inh	BJeLR viability	RN4220 kill	Mtb hypoxia inh	Mtb hypoxia inh growth	Autofluor counter	ugtP null kill
COc1ccc(NC(=O)CNc2cc(S(=O)(=O)N3CCOCC3)ccc2N2CCOCC2)c(OC)c1	10	.	5.4	1	-1	4950	2
COC(=O)c1ccc(CNC(=O)COC(=O)C2CC3C=CC2C3)cc1 (configuration not stated)	-16	7	1.5	13	11	4393	5
COc1cc(C=NNC(=O)C(=O)/C=C2\NC(C)(C)Cc3ccccc32)ccc1O	.	.	2.0	21	21	.	4
CNc1ccccc1C(=O)OCC(=O)c1ccc(F)cc1	-17	0	1.8	-2	3	3392	-2
COc1ccc(-c2csc(N=C(N)N)n2)cc1	-57	-10	7.2	-19	-18	2835	2
Cc1ccc(Cl)cc1NC(=O)NCCN1CCCCC1	-22	2	2.5	10	-3	3747	12
CC1(C)C2CCC1(CS(=O)(=O)N1CCN(c3ccccc3F)CC1)C(=O)C2 (configuration not stated)	-18	-14	1.6	-4	0	5938	5
